Screening results (PubChem)
Rango dissoc inh: inhibition of RanGTP-driven Rango-importin beta dissociation; Biochemical FRET Rango-importin beta, RanGTP-induced dissociation; Potency, µM (series often up to 46.1 µM), inactives show top-dose activity change, negative = inhibition; actives 0.071% (n = 340,000); AID 540253; active means falling FRET ratio curve, often poorly fitted, with flat reads before Ran was added; inconclusive means other falling curves, or compound fluorescence or quenching; inactive means flat or rising ratio curve;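 also: potency is read from the fitted curve at half-maximal effect; % of control where 0% means no effect; nearly all actives have a fitted effect of over 45% in size; -100% = wells without RanGTP and RCC1; the record marks most hits as doubtful in a second field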
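Recombinant Rango FRET biosensor (EYFP–snurportin 1 IBB–cerulean CFP10) at 0.1 uM premixed with 0.25 uM importin beta in PBS, 1 mM DTT, 0.02% Tween-20, 0.1% BSA. Compound added 5 min; RanGTP-RCC1 (0.6 uM Ran, 2 mM GTP, 0.2 uM RCC1) then triggers release, read at 45 min.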
GLA inh pH 4.5: inhibitors of human alpha-galactosidase A at pH 4.5 | P06280 | purified enzyme, 4-MU-alpha-Gal fluorescence, pH 4.5 | activity change, negative = inhibition, % at 105 µM | 230,000 tested, under 10 active | AID 1467; inconclusive = small, poorly fitted or top-dose-only inhibition, or a rising curve; inactive = flat fitted curve, though single readings scatter; no compound was filed as active;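 also: 0% = full activity with enzyme and -100% = basal without enzyme; dose as in the result columns while the protocol names 77 µM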
Rango complex inh: prevents formation of the Rango-importin beta complex | Q14974 | actives 0.031% (n = 340,000) | Potency, µM (titrated, usually from 92.2 µM), for inactives: at the highest dose inhibition of complex formation | AID 540263 | Rango CFP/YFP FRET sensor + importin beta, 45 min; active = rising FRET ratio curve, often small or poorly fitted; inconclusive = mostly compound fluorescence or quenching in the first reads; inactive = flat curves in all reads;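 also: potency is read from the fitted curve at half-maximal effect; 0% = DMSO wells and 100% = buffer wells lacking importin beta; nearly all actives have a fitted effect of over 15% in size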
Target sequence (Q14974 whole entry, looked up): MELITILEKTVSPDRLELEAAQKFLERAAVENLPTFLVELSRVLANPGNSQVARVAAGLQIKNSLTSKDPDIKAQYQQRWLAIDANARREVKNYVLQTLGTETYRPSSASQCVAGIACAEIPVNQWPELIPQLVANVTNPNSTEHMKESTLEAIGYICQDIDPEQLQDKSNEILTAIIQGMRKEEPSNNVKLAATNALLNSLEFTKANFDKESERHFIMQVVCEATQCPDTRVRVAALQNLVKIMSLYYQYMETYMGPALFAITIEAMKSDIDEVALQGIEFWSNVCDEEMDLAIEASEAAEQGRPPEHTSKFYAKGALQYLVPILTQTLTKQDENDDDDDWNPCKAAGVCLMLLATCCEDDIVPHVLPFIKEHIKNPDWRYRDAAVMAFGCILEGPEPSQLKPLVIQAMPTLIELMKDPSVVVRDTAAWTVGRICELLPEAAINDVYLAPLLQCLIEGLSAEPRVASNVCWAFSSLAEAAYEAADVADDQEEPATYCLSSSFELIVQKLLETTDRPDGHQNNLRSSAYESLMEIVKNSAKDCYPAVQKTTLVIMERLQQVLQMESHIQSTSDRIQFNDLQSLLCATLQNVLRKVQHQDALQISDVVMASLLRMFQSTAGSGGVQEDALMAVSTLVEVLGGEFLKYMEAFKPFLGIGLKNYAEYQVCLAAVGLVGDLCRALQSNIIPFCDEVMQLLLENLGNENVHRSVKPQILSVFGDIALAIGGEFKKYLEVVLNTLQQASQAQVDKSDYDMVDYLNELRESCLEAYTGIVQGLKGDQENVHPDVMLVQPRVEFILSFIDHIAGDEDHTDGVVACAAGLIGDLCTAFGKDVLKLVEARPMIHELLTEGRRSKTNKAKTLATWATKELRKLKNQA
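FRET biosensor (snurportin 1 IBB flanked by EYFP and cerulean), 50 nM, with compound 5 min, then 0.125 microM importin beta in PBS, 1 mM DTT, 0.02% Tween-20, 0.1% BSA. CFP/YFP ratio read after 45 min at room temperature; pre-read flags interference.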
miR-21 reporter: raises the signal of a miR-21 reporter; HeLa miR-21 FLuc reporter, luciferase, 48 h; Potency, µM (doses to about 38.3 µM), inactives show at the top dose reporter change, positive = more light; 340,000 tested, under 10 active; AID 2288; active = well fitted rising curve with a large enough effect; inconclusive = small, poorly fitted or top-dose-only effect; inactive = no such curve, though single readings can be large or run the other way;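 also: % of control where 0% means no effect; miR-21 action dims this reporter so a rising signal means less miR-21 action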
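Using DMEM plus 10% FBS, HeLa miR-21-FLuc cells are incubated with test compounds (final up to about 40uM) for 48 hours; firefly luciferase signal is then imaged following reagent-mediated lysis.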
* = called active by the depositor; ? = inconclusive; / = not tested or not shown; & = joins results of further samples. This is a subset; rates above refer to the full screens.

Rango dissoc inh,Rango complex inh,GLA inh pH 4.5,miR-21 reporter,SMILES
-3.1%,-1.4%,3.4,1.9%,c1ccc(N2CCN(CCc3nnc4n3CCCCC4)CC2)cc1
3.4%,-3.8%,/,/,CCOC(=O)C1=C(C)N(C[C@@H]2CC[C@@H](Cc3ccc(-c4ccccc4)cc3)O2)C(=O)NC1c1ccc(-c2ccccc2)cc1 (stereo not given in full)
18.9%,0.3%,3.3,-65.0%,O=C(N=C1c2ccccc2CN1c1cccc(Cl)c1)c1cccnc1
-10.0%,-1.4%,/,/,C[C@]12c3[nH]c4cc(-c5ccco5)ccc4c3CCN1C(=O)[C@@H](CC(=O)NCCN1CCOCC1)C[C@@H]2C(=O)N1CCOCC1
-1.5%,-0.8%,/,/,CN(Cc1cccc(Cl)c1Cl)C(=O)CCNC(=O)c1ccco1
-7.0%,-2.3%,/,-1.7%,Cc1ccc(S(=O)(=O)NCC2CCC(C(=O)NCCCN3CCCC3=O)CC2)cc1 (stereo not given)
-8.7%,6.6%,-4.5,0.2%,CCOc1ccc(C2CC(=O)NC3=C2C(=O)CCC3)cc1Cl (stereo not given)
31.8%,2.2%,/,/,CSCCC(NC(=O)c1ccc(Cl)cc1Cl)C(=O)N1CC(C)OC(C)C1 (stereo not given)
-6.9%,6.8%,/,/,C=CCNS(=O)(=O)NC(=O)C1=C(N2CCCC2)COC1=O
0.5%,-1.1%,5.0,1.7%,COc1cccc2cc(C(N)=O)oc12
17.5%,0.6%,-2.2,-2.1%,COc1ccc(N2CCN(S(=O)(=O)c3cccc(C(F)(F)F)c3)CC2)cc1
-3.8%,0.7%,/,/,CCOC(=O)C1CCCN(C(=O)c2cccc(S(=O)(=O)N3CCCC3)c2)C1 (stereo not given)
?,?,/,/,O=C(NCc1cccc(F)c1)c1cccc2c1C(=O)c1ccc(N3CCCC3)cc1S2(=O)=O
1.5%,1.2%,-3.5,?,Cc1cc(N)c2cc(NC(=O)/C=C/c3ccccc3Cl)ccc2n1
-18.9%,-1.1%,/,-26.9%,CCOc1ccc(C(=O)NC(C)CCc2ccccc2)cc1 (stereo not given)
14.5%,1.1%,-2.9,-1.2%,CC(=O)Nc1ccccc1OCc1cnc(Cl)s1
0.0%,-4.9%,4.0,-27.2%,O=C(NCCc1cccs1)C1CC(c2ccccc2F)=NO1 (stereo not given)
-1.8%,?,0.3,-5.1%,CCc1ccc(CNCCSc2nnnn2C)cc1
12.6%,5.5%,7.0,0.7%,Cc1cccc(N(CC(=O)NC(C)(C)C)C(=O)CNC(=O)c2cccs2)c1
-17.6%,0.0%,/,-1.0%,COc1cc2c(cc1OC)C(c1ccc(O)cc1)NCC2 (stereo not given)
-7.7%,-3.2%,/,-2.2%,C[C@H](C(=O)CC(=O)OC(C)(C)C)[C@H](O)c1ccccc1
-2.4%,-0.1%,-1.9,-4.2%,O=C(/C=C/c1ccc([N+](=O)[O-])cc1)N(c1ccccn1)C1CCCCC1
-1.6%,0.2%,-14.2,-9.3%,O=C(CN1CCN(c2nc(-c3ccccc3)cs2)CC1)NCc1ccc2c(c1)OCO2
-25.4%,1.6%,/,/,CCOc1ccc(C(=O)CCC(=O)Nc2ncccc2O)cc1
1.8%,-0.2%,4.4,-4.8%,Cc1ccc(NC(=O)Nc2nc(-c3ccc(C)s3)cs2)cc1
0.7%,-0.8%,1.5,4.1%,COCCCNC(=O)CCCn1c(=O)[nH]c2ccccc2c1=O
4.5%,0.1%,-29.7,-0.7%,COCCNC(=O)C(c1ccccc1F)N(C(=O)C(=O)NC1CCCC1)C1CCCCC1 (stereo not given)
1.5%,2.5%,/,-23.0%,CC1CCc2sc(C(=O)NNC(=S)NC3CC3)cc2C1 (stereo not given)
3.3%,-0.6%,2.0,-0.7%,COC(=O)c1ccc2c(=O)n(CC3CCCO3)c(SCC(=O)Nc3ccccc3Cl)nc2c1 (stereo not given)
-6.5%,-3.5%,9.6,-2.2%,CCOc1ccc(S(=O)(=O)NCCSCc2ccco2)cc1
-17.4%,-4.5%,-7.6,-2.2%,CCc1n[nH]c(=S)n1/N=C/c1cc(Br)c(OC)cc1OC
-6.2%,-3.3%,/,/,CC(NC(=O)COC(=O)c1ccccc1SCC(=O)N1CCCC1)c1ccccc1 (stereo not given)
-15.0%,3.7%,4.6,-9.7%,O=C(Cn1c(SCC(=O)NC2CCCC2)nnc1-c1ccncc1)Nc1ccc2c(c1)OCO2
2.2%,3.9%,/,/,CN(CC(=O)Nc1ccccc1Cl)C(=O)c1ccc(-c2cccc(C(F)(F)F)c2)o1
12.0%,-2.4%,7.1,-5.0%,CCC(CC)C(=O)NCCc1cc2cc(C)c(C)cc2[nH]c1=O
-1.3%,0.2%,/,-7.8%,O=C(CN1C(=O)NC2(CCCC2)C1=O)Nc1cccc(C(F)(F)F)c1
-4.9%,2.5%,0.0,-7.6%,CCOC(=O)c1sc(NC(=O)CSc2nc(C)cc(-c3ccccc3)n2)c(C#N)c1C
36.0%,0.3%,1.5,-4.7%,CC1CCN(c2c(NCC3CCC(C(=O)N4CCc5ccccc5C4)CC3)c(=O)c2=O)CC1 (stereo not given)
-12.2%,5.4%,1.5,-7.7%,COC(=O)C1=C(C)N(CCC2=CCCCC2)C(=O)C1
17.2%,-2.0%,1.8,-17.3%,Cc1cc(C(=O)NCc2ccccc2)c(=O)[nH]c1C
25.5%,-3.2%,12.5,-34.4%,C[C@H](NS(=O)(=O)c1ccccc1)C(=O)OCC(=O)NC(=O)Nc1ccc2c(c1)OCCO2
-5.0%,11.1%,0.5,-32.5%,COCCNC(=S)N/N=C(\C)c1cc2ccccc2o1
-5.8%,0.2%,-4.2,-3.2%,COc1ccc(NC(=O)C2CC(=O)N/C(=N/N=C/c3ccco3)S2)cc1 (stereo not given)
19.0%,-0.6%,/,-4.6%&-0.4%,CCc1nonc1NC(=O)c1oc2ccc(Br)cc2c1C
?,?,-3.5,15.6%,O=C(Nc1cccc(C(F)(F)F)c1)c1ccc2nc(-c3ccco3)c(-c3ccco3)nc2c1
4.8%,-1.5%,7.9,-6.3%,CCOC(=O)c1sc(=S)n(-c2cc(F)ccc2F)c1N
4.2%,2.9%,-8.5,-53.3%,CCOC(=O)c1[nH]c(C)c(C(=O)C(C)C)c1C
-11.9%,-1.7%,1.3,-1.9%,O=C(COC(=O)c1ccc(CO)cc1)Nc1ccc(OC(F)F)cc1
-4.9%,3.6%,/,0.5%,COc1ccc2c(c1)c(=O)oc1cc(OCC(=O)NCC3CCC(C(=O)O)CC3)ccc12 (stereo not given)
5.8%,3.3%,/,/,CC[C@H](C)C(N)c1cn([C@@H](CC(N)=O)C(=O)N2CCNCC2)nn1 (stereo not given in full)
1.9%,5.8%,/,7.2%,S=c1[nH]nc(-c2ccc(Br)cc2)n1-c1ccc(Br)cc1
-9.7%,1.1%,/,/,COc1ccc(OC(C)C(=O)NC2CCCCCC2)cc1 (stereo not given)
-11.0%,6.9%,-0.2,0.6%,COc1ccc(N2C(=O)C3C(C2=O)C2C=CC3C23CC3)c([N+](=O)[O-])c1 (stereo not given)
-0.8%,2.9%,-11.5,-24.0%,O=C(NNC(=S)Nc1ccc(F)cc1)c1cccc([N+](=O)[O-])c1
11.8%,0.5%,-8.6,0.8%,O=[N+]([O-])c1ccc(-n2ccnc2)cc1
-33.2%,?,/,-3.7%,CCOCCCNC(=O)c1cc(-c2ccc(Br)s2)nc2ccccc12
1.7%,-3.7%,/,9.4%,COc1cccc(NC(=O)CCC(=O)Nc2cc(OC)c(NC(=O)c3cccs3)cc2OC)c1
-3.5%,-1.6%,-2.9,-6.3%,Cc1ccc2oc(=O)c3cc(C(=O)NCCCN4CCc5ccccc5C4)sc3c2c1
2.5%,4.5%,-9.4,-6.2%,COc1cc(OC)cc(-c2nc(=S)n3ccsc3n2)c1
8.0%,0.5%,-3.7,-1.4%,O=[N+]([O-])c1cc(Cl)ccc1N1CCOCC1

Additional entries
Rango dissoc inh,Rango complex inh,GLA inh pH 4.5,miR-21 reporter,SMILES
-9.7%,?,-15.5,-13.5%,CC(=O)[C@@H]1[C@@H](C(=O)c2ccc(F)cc2)[C@]2(C(=O)Nc3ccccc32)[C@H]2C=Cc3cc(F)ccc3N12
15.9%,-2.2%,/,-3.7%,O=C(NCCCN1CCCCC1)C1CCC(CNS(=O)(=O)c2cccc3nsnc23)CC1 (stereo not given)
-2.6%,0.8%,-0.6,-1.2%,CN1/C(=C\C(=O)C(F)F)C(C)(C)c2ccccc21
-1.5%,1.4%,/,/,Cc1ccccc1N1CC(C(=O)N2CC(C)CC(C)C2)CC1=O (stereo not given)
7.6%,0.6%,/,-43.6%,Cc1nc2ccc(NC(=O)c3ccc([N+](=O)[O-])cc3)cc2[nH]1
3.3%,-1.8%,2.8,-39.7%,CCn1cc(C(=O)NC(=S)Nc2cccc(O)c2)cn1
-25.4%,?,7.0,-70.6%,CCOC(=O)c1sc2nc3c(cc2c1N)COC(C)(C)C3
?,?,/,-31.3%,C#CCOC(=O)CN1C(=O)c2cccc3cccc(c23)C1=O
37.0%,3.1%,/,/,COc1ccc(Cl)cc1NC(=O)CN(C)C(=O)CSc1ccc2c(c1)OCCO2
0.8%,1.3%,-1.4,-8.3%,Cc1cc(-c2ccccc2)nc(N2CCN(c3ccccn3)CC2)n1
?,-4.1%,/,-2.1%,Cc1ccccc1CN1CCNC(=O)C1CC(=O)NCCC1=CCCCC1 (stereo not given)
-6.8%,0.3%,/,-14.4%,CC(C)CCN(C(=O)CNC(=O)c1ccco1)C(C(=O)NC1CCCCC1)c1cccnc1 (stereo not given)
12.4%,0.8%,-1.5,-1.4%,O=C(c1cccs1)N(c1ccc(Cl)cc1)C1C=CS(=O)(=O)C1 (stereo not given)
-0.4%,-3.7%,/,/,COc1ccc(CNC(=O)CSc2nccn(-c3ccc(F)c(F)c3)c2=O)cc1
1.3%,0.9%,-1.0,0.1%,CC(C)=CCN1CCN(Cc2cccn2-c2ccccn2)CC1CCO (stereo not given)
10.2%,3.2%,/,/,O=[N+]([O-])c1ccc2c(c1)Cc1cc(F)ccc1-2
0.9%,0.7%,5.9,-3.3%,Cc1ccc(N(CC(=O)N2CCOCC2)S(C)(=O)=O)cc1C
9.0%,-0.2%,-3.6,-34.4%,CCc1ccc(C(=O)NCc2ccc(Cl)cc2)cc1
12.1%,1.9%,-11.5,0.0%,CCNC(=S)NNC(=O)c1c(Cl)c(C)nn1C
1.4%,0.8%,-9.4,-21.8%,COc1cc(/C=N/NC(=O)c2csc3c2CCCC3)cc(OC)c1O
-17.2%,-0.6%,1.2,-3.5%,O=C1CCC(/C=C/c2ccccc2)=NN1Cc1ccccc1Cl
13.1%,-1.3%,-9.1,-0.1%,CNc1nc2ccccc2n1N
27.9%,5.1%,-1.2,4.8%,CCn1c(/C=C2\C(=O)N(C(C)C)c3ccccc32)nc2ccccc2c1=O
?,0.4%&0.0%,-1.5,/,CN(CCOc1ccc(CC2SC(=O)NC2=O)cc1)c1ccccn1 (stereo not given)
14.9%,1.1%,-4.1,-5.8%,CCc1ccc(-c2cc(C(=O)N3N=C(C(F)F)CC3(O)C(F)F)c3ccccc3n2)cc1 (stereo not given)
-6.7%,-1.6%,/,8.5%,O=C(CCCCC(=O)NNC(=O)COc1ccccc1)NNC(=O)COc1ccccc1
3.4%,3.9%,/,/,Cc1cc(C)n2nc(C(=O)OCC(=O)c3ccc(F)cc3)nc2n1
-1.5%,-0.9%,-4.8,17.8%,COc1ccc(S(=O)(=O)n2nc(-c3ccc(Cl)cc3)cc2N)cc1OC
-26.7%,6.7%,/,-50.1%,NS(=O)(=O)c1cc(C(=O)Nc2ccc3c(c2)OCCCO3)ccc1Cl
4.3%,0.3%,1.9,6.1%,Cc1cccc[n+]1CC(=O)Nc1ccc([N+](=O)[O-])cc1Cl

Among those listed so far, these have a tert-butyl group:
Rango dissoc inh,Rango complex inh,GLA inh pH 4.5,miR-21 reporter,SMILES
12.6%,5.5%,7.0,0.7%,Cc1cccc(N(CC(=O)NC(C)(C)C)C(=O)CNC(=O)c2cccs2)c1
-7.7%,-3.2%,/,-2.2%,C[C@H](C(=O)CC(=O)OC(C)(C)C)[C@H](O)c1ccccc1
